CtBP-E1A blk: inhibitors of CtBP/E1A interaction; AlphaScreen GST-E1A/His-CtBP binding, 1536-well; stronger effect = lower value; control for the full effect not named in the record; activity change, % (concentration not given with the values); actives 0.49% (n = 340,000); in the data active means activity change below about -65%; inconclusive means about -30% to -65%; inactive means above about -30%; note: % is set by controls: 0 for no effect and ±100 for the full control effect
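Steps: dispense buffer (Tris pH 8.0, NaCl 300 mM, TCEP 1 mM, BSA, Tween 20); add 5X protein mix (GST-E1A, His-CtBP, 125 nM each); pin 23 nL compound; 2 h at 37 °C, dark; add 5X beads (50 ug/mL); 1 h; read.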
D2 agonist: activates the human D2 dopamine receptor; P14416; DiscoveRx PathHunter D2 beta-arrestin, luminescence, 90 min; 100% = 57 uM dopamine signal; activation, % (test concentration not listed); actives 0.084% (n = 360,000); AID 624465; in the data active = activation above about 40%; inconclusive = about 15% to 40%; inactive = below about 15%; note: compound concentration not given in the record; the text of the record calls up to 30% inactive
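DiscoveRx PathHunter D2 beta-arrestin cells (2,100/well) attached overnight, then compound-stimulated 90 min at 37 C in HBSS/10 mM HEPES/0.1% Tween-20 buffer; beta-galactosidase complementation read by luminescence after 1 h at ambient temperature. Dopamine 57 uM final (EC100) as control.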
Sfp PPTase inh: inhibitors of Bacillus subtilis Sfp phosphopantetheinyl transferase; Potency, µM, for inactives: max response, negative = inhibition, most hits filed as inhibitors; actives 3.5% (n = 310,000); Biochemical Sfp PPTase activity, qHTS; Q9F4F7; active = well fitted inhibition curve with a large enough effect; inconclusive = small, poorly fitted or top-dose-only effect, or another doubt; inactive = no such curve, though single readings can be large or run the other way;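 note: the enzyme is Sfp with the accession as filed and its product quenches rhodamine fluorescence; potency is the fitted concentration of half-maximal effect; 0% = enzyme reaction without inhibitor and -100% = no enzyme wells; top concentration of the series not given in the record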
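Sfp 15 nM + cpd, 15 min RT; start w/ rhodamine-CoA 5 uM, BHQ-2-YbbR 12.5 uM (final); 50 mM Hepes pH 7.6, 10 mM MgCl2, 0.01% NP-40, 0.01% BSA; read 525/598 nm at 0 and 30 min.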
TRPV1 PAM: enhances activation of the human vanilloid receptor TRPV1 | Q8NER1 | TRPV1-expressing cells, Fluo-8 calcium influx, capsaicin EC20 potentiation; host cell line not named in the record; control for the full effect not named in the record | potentiation, % at 8.33 µM | actives 0.02% (n = 320,000); active means potentiation above 80%; inconclusive means 30% to 80%; inactive means below 30%; note: 0% is about no effect
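Cells expressing TRPV1 were dye-loaded with Fluo-8 and read kinetically: 10 s baseline, 3 min after compound (agonist portion), then 2 min after EC20 capsaicin (allosteric enhancer portion). Calcium-bound dye fluorescence at 480/520 nm.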
Six1-Eya2 blk: blocks human Six1 binding to Eya2 | Q15475+O00167 | AlphaScreen GST-Six1/His-Eya2 binding, biochemical; stronger effect = lower value; control for the full effect not named in the record | activity change, % (no concentration beside the values) | actives 0.56% (n = 360,000) | AID 651725; in the data active = activity change below about -65%; inconclusive = about -30% to -65%; inactive = above about -30%; note: % is set by controls: 0 for no effect and ±100 for the full control effect; compound concentration not given in the record
Target sequence (O00167 whole entry, looked up): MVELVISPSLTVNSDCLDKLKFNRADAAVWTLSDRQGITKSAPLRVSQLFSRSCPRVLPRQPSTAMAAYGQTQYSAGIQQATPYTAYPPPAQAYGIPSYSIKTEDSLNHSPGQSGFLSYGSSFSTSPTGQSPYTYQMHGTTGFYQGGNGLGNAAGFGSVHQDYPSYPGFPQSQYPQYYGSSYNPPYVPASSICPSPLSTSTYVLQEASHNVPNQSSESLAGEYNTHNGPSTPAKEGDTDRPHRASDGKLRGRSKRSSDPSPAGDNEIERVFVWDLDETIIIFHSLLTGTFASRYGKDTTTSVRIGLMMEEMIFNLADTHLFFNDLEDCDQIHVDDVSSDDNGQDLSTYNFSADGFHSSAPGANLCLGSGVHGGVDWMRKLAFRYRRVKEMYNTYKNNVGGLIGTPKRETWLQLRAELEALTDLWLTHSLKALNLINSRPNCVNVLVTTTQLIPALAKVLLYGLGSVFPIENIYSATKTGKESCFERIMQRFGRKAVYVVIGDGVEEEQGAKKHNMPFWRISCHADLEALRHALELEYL
Target sequence (Q15475 whole entry, looked up): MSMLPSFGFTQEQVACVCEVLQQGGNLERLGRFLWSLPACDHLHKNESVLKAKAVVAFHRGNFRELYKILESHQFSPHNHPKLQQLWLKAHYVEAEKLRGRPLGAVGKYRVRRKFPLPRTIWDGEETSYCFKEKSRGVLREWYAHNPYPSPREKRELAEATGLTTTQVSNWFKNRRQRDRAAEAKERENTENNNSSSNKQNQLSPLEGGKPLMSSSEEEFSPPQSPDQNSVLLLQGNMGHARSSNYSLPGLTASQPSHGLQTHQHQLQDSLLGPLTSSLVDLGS
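Homogeneous AlphaScreen proximity assay pairing GST-Six1 with His-tagged Eya2 (added as 5X mix: 250 nM and 500 nM) in 50 mM Tris pH 8.0, 300 mM NaCl, 1 mM TCEP. Glutathione donor and nickel acceptor beads; 1 h, 37 °C, dark.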
PINK1 modulator: PINK1 expression modulation; PINK1 immunofluorescence, high-content cytometry, 24 h; Potency, µM (titrated, usually from 76.6 µM), inactives show at the top dose activation (PINK1 increase), usual class: activators; actives 0.2% (n = 410,000); active = well fitted activation curve with a large enough effect; inconclusive = small, poorly fitted or top-dose-only effect; inactive = flat fitted curve, though single readings scatter; cell line not stated here;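 note: potency is the fitted concentration of half-maximal effect; % of control where 0% means no effect; nearly all actives have a fitted effect of over 65% in size; a mitochondrial uncoupler was the plate control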
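PINK1 protein level read as immunofluorescence by microplate cytometer in a fixed, stained stable cell line after 24 h exposure to five compound concentrations, with CCCP as control.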
D2 potentiator: human D2 receptor positive allosteric modulation. P14416. actives 0.23% (n = 360,000). DiscoveRx D2 beta-arrestin cells, luminescence, 90 min; 100% = 57 uM dopamine signal. potentiation, % (no concentration beside the values); active = potentiation of 50% or more; inconclusive = 30% to 50%; inactive = 30% or less;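 note: compound concentration not given in the record; tested on top of an EC20 dose of dopamine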
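D2 cells co-treated with compound plus 50 nM dopamine (EC20) for 90 min at 37 deg C to detect potentiation. Beta-arrestin recruitment was read as enzyme-fragment luminescence after 1 h at ambient temperature. Full response was set by 57 uM dopamine.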
* marks the source's active call; other numbers are inactive results; u = inconclusive; x = no result given; & = joins results of further samples; [ ] = another dose, or the depositor's remark.

compound	CtBP-E1A blk	D2 agonist	Sfp PPTase inh	TRPV1 PAM	Six1-Eya2 blk	PINK1 modulator	D2 potentiator
CCN(CC)S(=O)(=O)c1ccc(C(=O)NNC(=O)C2CCN(S(=O)(=O)c3ccc(Cl)cc3)CC2)cc1	-19	3.2	-4%	20	1	4.5%	-12
Cc1nc(SCC(=O)OCc2ccccc2)c2c(=O)n(C)c(=O)n(C)c2n1	9	-7.3	-6%	6	-1	0.3%	-8
COC(=O)CCCn1nc(NC(=O)c2ccco2)cc1C	x	4.4	11%	-2	1	1.3%	2
O=C(Nc1cc(F)ccc1F)N1CCN(c2ccnc3cc(Cl)ccc23)CC1	-23	0.4	14%	-22	-23	2.0%	-5
O=C(C(=O)N1CCc2ccccc2C1)c1c[nH]c2ccccc12	x	-1.6	15%	3	6	0.9%	-8
CC(=O)Nc1nonc1-c1nc2ccccc2n1Cc1nnc(C)o1	1	-4.3	16%	-1	5	-25%[38.3 µM]	-8
CCCc1nc2ccc(Br)cn2c1Cc1ccccc1	-18	-9.0	x	x	4	2.8%	-17
CCOc1cnc(-c2c(-c3ccccc3Cl)noc2C)o1	-13	-3.6	-4%	-10	7	2.2%	-26

Later entries:
compound	CtBP-E1A blk	D2 agonist	Sfp PPTase inh	TRPV1 PAM	Six1-Eya2 blk	PINK1 modulator	D2 potentiator
CCN(CC)CCCNC(=O)c1nn(-c2ccccc2OC)c(=O)c2ccccc12	7	-3.7	0%	-1	14	-1.0%	-22
COc1ccccc1C(=O)N1CCN(Cc2cn[nH]c2-c2ccc(F)cc2F)CC1	x	5.2	-7%	1	0	-0.1%	-3
Cc1cccc(Nc2nc3ccccc3s2)c1C	-15	-1.4	-2%	-5	-3	30%	4
Cc1ccccc1NS(=O)(=O)c1ccc(C(=O)N2CCC2)cc1	9	-5.4	x	-3	-9	3.9%	18
CCC(=O)Nc1cc2c(cc1C(=O)CC)OCCO2	3	0.2	10%	x	2	-0.7%	-4
CC(C)C(NC(=O)c1c(F)cccc1F)C(=O)NCCc1ccc(S(N)(=O)=O)cc1 (stereo not given)	-3	-1.1	6%	2	-12	-0.1%	-4
NS(=O)(=O)c1ccc(NC(=S)Nc2ccc(S(=O)(=O)Nc3nccs3)cc2)cc1	0	6.8	x	x	1	-0.2%	-3
NS(=O)(=O)c1ccc(CCNC(=O)CCCn2c(=O)[nH]c3ccc(Br)cc3c2=O)cc1	0	2.2	15%	0	6	1.7%	-1

Going on with the list.
compound	CtBP-E1A blk	D2 agonist	Sfp PPTase inh	TRPV1 PAM	Six1-Eya2 blk	PINK1 modulator	D2 potentiator
CC1CCCN(c2ncnc3c2cnn3-c2ccc(Cl)cc2)C1 (stereo not given)	7	0.9	13%	17	-6	7.5%	-7
O=C(C1CCCCC1)N1CCCC(c2nc3c(nnn3Cc3ccccc3)c(=O)[nH]2)C1 (stereo not given)	-16	-2.9	-7%	-12	-3	-3.7%[38.3 µM]	-10
Cc1ccc(-c2nnc(SCC(=O)NNC(=O)COc3cccc(C)c3)n2C)cc1	0	-2.2	10%	x	-1	0.8%[38.3 µM]	-5
CN(C)c1ccc(-c2nnc(-c3ccccc3F)o2)cc1	x	-3.9	-17%	-3	20	1.0%	-20
COCCCNC(=O)Cn1nc(-c2ccc(C)cc2)ccc1=O	-3	-0.4	5%	-15	-1	-1.7%[38.3 µM]	-5
C/C=C/C(=O)OCC(=O)Nc1cccc(Br)c1	2	7.6	2%	0	0	2.0%	-2
COc1ccc(-c2nc3ccc(C(=O)NCC(OC)OC)cc3nc2-c2ccc(OC)c(OC)c2)cc1OC	11	3.3	20%	1	4	-0.3%	8
CCc1ccc(OCC2c3cc(OC)c(OC)cc3CCN2C(=S)NC)cc1 (stereo not given)	-20	-7.2	17%	5	0	6.5%	-9

Later entries.
compound	CtBP-E1A blk	D2 agonist	Sfp PPTase inh	TRPV1 PAM	Six1-Eya2 blk	PINK1 modulator	D2 potentiator
COc1ccc(-c2nc3ncnn3cc2C)cc1F	-2	-3.7	-13%	3	6	1.9%	-4
Cc1cc(/C=C2/SC(=O)N(CC(=O)N3CCOCC3)C2=O)c(C)n1-c1ccccc1F	10	-4.0	-23%	9	5	-0.2%	-4
CCOc1ccc(CC(=O)N2CCN(c3ccc(N4CCOCC4)nn3)CC2)cc1OCC	-20	0.5	-4%	-17	4	1.1%	-6
CSCCC(NC(=O)c1ccc(Cl)cc1)C(=O)OCC(=O)N1CCCC1=O (stereo not given)	4	-0.7	x	7	4	2.1%	2
COc1cccc(N2CCN(Cc3nc(N)nc(Nc4ccccc4OC)n3)CC2)c1	-16	-1.1	-13%	1	-20	0.2%	-11
COc1cccc(CN2CC(C(=O)N3CCCC3)CCC2=O)c1 (stereo not given)	5	6.1	15%	2	2	0.3%	-3
Cc1ccc(NC(=S)N(CCN(C)C)C(C)c2ccco2)cc1C (stereo not given)	-7	-1.5	u	1	-18	-1.4%	-34
CC(C)(C)NC(=O)C[C@H]1C[C@H](C(=O)N2CCOCC2)[C@@]2(CCC3CCCC3)c3[nH]c4cc(-c5ccco5)ccc4c3CCN2C1=O	-25	1.2	x	x	-13	2.7%	-4

(next part)
compound	CtBP-E1A blk	D2 agonist	Sfp PPTase inh	TRPV1 PAM	Six1-Eya2 blk	PINK1 modulator	D2 potentiator
CC1(C)CC2CC(C)(CN2C(=O)COC(=O)CNC(=O)c2ccc(Cl)c(Cl)c2)C1 (stereo not given)	-10	1.9	-1%	-13	42	24%	-10
COc1cc(Nc2ccn3nc(-c4ccc(F)cc4)cc3n2)cc(OC)c1OC	-16	10	x	x	-11	4.0%	-10
Cc1c(NC(=O)C(C)SC(=S)N2CCCC2)c(=O)n(-c2ccccc2)n1C (stereo not given)	5	3.9	x	10	0	0.0%	-6
Cc1cccc(NC(=O)C2CCN(C(=O)c3ccc(Cl)cc3)CC2)n1	-5	-1.4	x	-7	0	0.1%	19
CC(=O)c1c(C)[nH]c(C(=O)COC(=O)CCSc2ccccc2)c1C	x	7.5	9%	-21	-11	-1.4%	-3
CC(N)c1csc(Nc2ccc(C(=O)NCCO)cc2)n1 (stereo not given)	-10	-5.1	x	x	0	-0.3%	-8
CCn1cc(/C=N/NC(=O)c2ccc(C#N)cc2F)c2ccccc21	0	-0.1	12%	5	-1	3.8%[38.3 µM]	-12
Cc1nc2cc(NC(=O)c3ccc(Cl)cc3)ccc2n1C	-1	-5.1	16%	-3	-1	2.1%	-2

More results.
compound	CtBP-E1A blk	D2 agonist	Sfp PPTase inh	TRPV1 PAM	Six1-Eya2 blk	PINK1 modulator	D2 potentiator
Cc1ccc(F)c(S(=O)(=O)NC(=O)C2(C)CCN2C(=O)C/C=C/c2ccccc2)c1 (stereo not given)	7	2.0	x	x	0	-0.7%	-3
COc1cccc(C(=O)Oc2ccc(N3C(=O)CCC3=O)c(C)c2)c1	0	0.1	16%	-14	-6	3.0%	-6
COc1cc2c(cc1NC(=O)CN1C(=O)NC3(CCc4ccccc43)C1=O)oc1ccccc12 (stereo not given)	-8	-0.6	5%	28	-5	-0.6%	-19
Cc1cccc(C(=O)N=C2SC3CS(=O)(=O)CC3N2c2ccccc2)c1 (stereo not given)	6	-3.2	x	9	4	6.9%	11
Cc1cc(-c2nnc(SCC(=O)Nc3ccc(Br)cc3F)n2N)n[nH]1	0	-2.3	11%	4	0	0.4%	-5
CCOC(=O)c1cc2sccc2n1CC(=O)C(C)(C)C	-5	-7.6	7%	-10	13	1.0%	-3
O=C(O)Cn1nc(-c2ccc(F)cc2)oc1=O	1	1.4	32%[activator]	13	4	0.7%	-5
OC(CN1CCN(c2ncc(C(F)(F)F)cc2Cl)CC1)c1ccccc1 (stereo not given)	x	-0.3	9%	1	0	16%	-8

Further structures follow:
compound	CtBP-E1A blk	D2 agonist	Sfp PPTase inh	TRPV1 PAM	Six1-Eya2 blk	PINK1 modulator	D2 potentiator
Cc1nnc2ccc(-c3cccc(NS(=O)(=O)c4ccccc4Cl)c3)nn12	-11	12	x	10	1	5.3%	-10
Cn1nc(C(=O)Nc2ccc(-n3cnnn3)cc2)c2ccccc2c1=O	0	-1.2	x	x	-15	0.6%	5
CCOc1ccc(NS(=O)(=O)c2ccc(NC(=O)C3CCCO3)cc2)cc1 (stereo not given)	1	0.0	-2%	-12	2	-1.2%	8
Cc1[nH]n(S(=O)(=O)Cc2ccccc2)c(=O)c1N=Nc1ccccc1Cl	-15	-4.3	11%	-59	-16	1.3%	-9
CCN1C(=NCc2ccco2)N[C@@H](c2cccc(C(F)(F)F)c2)C(C(=O)OC)=C1C	-7	-5.5	-12%	u	0	0.5%	-17
CC(C)c1ccc(N(C(=O)c2cc3ccccc3oc2=O)C2C=CS(=O)(=O)C2)cc1 (stereo not given)	0	-2.8	-8%	-16	-4	-2.4%	-12
Cc1cc(SCc2ccc(Br)cc2)nc(=O)[nH]1	-19	-2.2	15%	4	1	2.1%	-7
O=C(CSc1nnc(CNC(=O)c2c(F)cccc2Cl)o1)NCCc1ccccc1	1	-4.5	12%	22	2	-0.4%	-10

The results go on.
compound	CtBP-E1A blk	D2 agonist	Sfp PPTase inh	TRPV1 PAM	Six1-Eya2 blk	PINK1 modulator	D2 potentiator
Cc1nc(Nc2ccccc2)sc1C	-6	4.4	u	1	-9	0.1%	-26
CC(=O)N(C(C)=O)c1cccc(N(Cc2ccccc2)Cc2ccccc2)c1	-1	1.6	x	x	2	18%	-3
O=c1[nH][nH]c2c1[C@H](C1CCCC1)O[C@H](CCc1ccccc1)C2	-14	x	x	x	10	3.7%	x
COc1cc(OC)c2ccc(=O)oc2c1C(CCN1CCCC1)c1ccc2c(c1)OCO2 (stereo not given)	-1	-2.6	-4%&-1%	2	-4	-1.1%	-23
CC1=C(C(=O)N(C)C)CC(CC(=O)NC2CCCCC2)C(=O)N1CCC1=CCCCC1 (stereo not given)	3	1.1	x	x	1	0.1%	x

Screening data as filed in PubChem BioAssay.
